YopH PTP inh: inhibitors of Yersinia enterocolitica YopH tyrosine phosphatase; fluorescence Ex485/Em525; inhibition, %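 (about 10 µM by stock and volumes)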; hit rate 0.16% among 140,000;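 active = inhibition of 50% or more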;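 note: controls were vehicle for no effect and minimum signal wells for full effect; inactives centre near -20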
RecA splice inh: inhibitors of M. tuberculosis RecA intein splicing; hit rate 0.75% among 290,000; cell-free RecA intein splicing, fluorescence; P9WHJ3; inhibition, %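 (about 9 µM by stock and volumes)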; in the data active = inhibition above about 30%; inconclusive = no clear call, values can overlap the other calls;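 note: 0% = vehicle wells and 100% = reference inhibitor control wells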
Target sequence (P9WHJ3 whole entry, looked up, canonical isoform): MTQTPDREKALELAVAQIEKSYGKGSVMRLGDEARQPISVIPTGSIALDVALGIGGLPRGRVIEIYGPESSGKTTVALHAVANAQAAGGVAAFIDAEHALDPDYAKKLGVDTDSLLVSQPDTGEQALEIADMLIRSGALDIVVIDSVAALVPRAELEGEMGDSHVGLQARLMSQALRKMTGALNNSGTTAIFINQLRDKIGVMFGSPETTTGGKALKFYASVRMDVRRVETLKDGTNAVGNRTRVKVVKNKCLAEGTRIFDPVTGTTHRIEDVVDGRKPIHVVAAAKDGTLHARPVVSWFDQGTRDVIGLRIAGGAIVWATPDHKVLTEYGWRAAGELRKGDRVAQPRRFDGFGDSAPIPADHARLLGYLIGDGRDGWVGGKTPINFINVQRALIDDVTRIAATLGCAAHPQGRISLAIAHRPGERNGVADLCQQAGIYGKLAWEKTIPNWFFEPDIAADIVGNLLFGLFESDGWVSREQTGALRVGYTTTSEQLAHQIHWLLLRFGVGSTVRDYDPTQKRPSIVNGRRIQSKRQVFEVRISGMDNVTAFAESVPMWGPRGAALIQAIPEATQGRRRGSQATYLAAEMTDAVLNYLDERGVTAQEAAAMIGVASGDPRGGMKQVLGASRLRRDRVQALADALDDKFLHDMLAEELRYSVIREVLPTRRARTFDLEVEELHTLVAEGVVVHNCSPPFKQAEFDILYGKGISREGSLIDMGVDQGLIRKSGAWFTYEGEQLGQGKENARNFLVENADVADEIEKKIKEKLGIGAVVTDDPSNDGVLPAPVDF
Mtb bLac sens: beta-lactam sensitization of Mtb H37Rv | hit rate 0.27% among 330,000 | inhibition, % at 25 µM | M. tuberculosis H37Rv growth with meropenem, percent inhibition; hits of this screen are not shown here;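 active = about 74% or more and at least 40 points above the plate without the antibiotic, then above 30% in a dose series; inconclusive = first-round hits that could not be retested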;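 note: growth measured after seven days incubation then overnight dye step; 0% = bacteria only wells and 100% = bacteria with antibiotic; twin plates without the antibiotic show which effects depend on it; some results filed as inactive read as strong as hits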
Mtb H37Rv: M. tuberculosis H37Rv growth inhibitors, H37Rv strain (AID 1626); M. tuberculosis H37Rv growth inhibition; higher % means a stronger effect; inhibition, % at 10 µM, or IC50 in µM where a hit was titrated; hit rate 0.95% among 220,000;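 active = confirmed in a dose series; inconclusive = inhibition above 80% but not taken into the dose series; inactive = below 80% or under 30% at every dose of the series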;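 note: bacteria incubated seven days before Alamar blue readout; 0% = bacteria only wells and 100% = bacteria with antibiotic wells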
Arbovirus inh: arbovirus infection inhibition | inhibition, % at 10 µM | hit rate 0.37% among 200,000 | arbovirus infection cell-based antiviral screen;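 active = inhibition from about 30%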;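 note: bluetongue infection of BSR cells; cell survival read as ATP light after 72 h; 0% = infected wells without compound and 100% = uninfected wells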
Arbovirus inh repeat: second read-out of Arbovirus inh, no call of its own (marks repeat the call); inhibition, %; measured here: 10K subset replicate screen; many hits read low in the repeat;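 first of two repeat runs on a subset; 0% = infected and 100% = uninfected wells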
The depositor's hits bear a star; ? = inconclusive; . = no result given. This is a subset, so the mix of outcomes need not match the whole.

Sample of the layout (five entries):
SMILES | YopH PTP inh | RecA splice inh | Mtb bLac sens | Mtb H37Rv | Arbovirus inh | others
COc1ccc2oc(C(=O)OCc3nnc(-c4ccccc4)o3)c(C)c2c1 | . | -2.7 | -2 | . | .
COc1ccc(/C=C2/SC(=S)N(CCCC(=O)Nc3cccc(O)c3)C2=O)cc1 | . | 38* | 0 | . | .
CC(=O)N1CCN(Cc2nc3cc(NC(=O)NC4CCCCC4)ccc3n2C)CC1 | . | 3.1 | -3 | 1% | 2
S=c1nccc(-c2ccc(Cl)cc2)[nH]1 | . | 6.0 | 92 | -5% | .
O=C(NC1c2ccccc2-c2ccccc21)N1CCCCC1 | -22 | 2.9 | . | -12% | 4

All compounds of this part (from the top)
SMILES | YopH PTP inh | RecA splice inh | Mtb bLac sens | Mtb H37Rv | Arbovirus inh | others
COc1ccc2oc(C(=O)OCc3nnc(-c4ccccc4)o3)c(C)c2c1 | . | -2.7 | -2 | . | .
COc1ccc(/C=C2/SC(=S)N(CCCC(=O)Nc3cccc(O)c3)C2=O)cc1 | . | 38* | 0 | . | .
CC(=O)N1CCN(Cc2nc3cc(NC(=O)NC4CCCCC4)ccc3n2C)CC1 | . | 3.1 | -3 | 1% | 2
S=c1nccc(-c2ccc(Cl)cc2)[nH]1 | . | 6.0 | 92 | -5% | .
O=C(NC1c2ccccc2-c2ccccc21)N1CCCCC1 | -22 | 2.9 | . | -12% | 4
Cc1onc(-c2ccccc2)c1C1=N/C(=C\c2ccccc2F)C(=O)O1 | . | -3.5 | 33 | -7% | 14
O=[N+]([O-])c1ccc(/C=N/Nc2ccnc3cc(Cl)ccc23)o1 | . | 19 | 100 | . | .
COc1ccc(N(C(=O)c2cnccn2)C(C(=O)NC2CCCCC2)c2ccccc2)cc1 (centres undefined) | . | -1.3 | 7 | . | .
Cc1cc(N2CCOCC2)nc(SCC(=O)c2ccccc2)n1 | 4 | 2.0 | -2 | -4% | 6 | Arbovirus inh repeat=1
O=C(CSc1nnc(-c2ccccc2O)o1)Oc1ccc(OCc2ccccc2)cc1 | -22 | -0.5 | 73 | -7% | -36
O=C(c1ccco1)N1CCN(C(c2ccccc2F)c2nnnn2CC2CCCO2)CC1 (centres undefined) | -23 | 0.5 | 0 | 5% | 6
CCN1C(=O)N[C@@H](CCc2ccccc2)[C@@H](C(=O)OC)[C@H]1C | . | -2.6 | -6 | -1% | .
CC1(C)Cc2c(cnn2-c2ccccc2)C(=O)/C1=N\NC(=O)c1ccncc1 | -2 | 1.9 | 99 | 75% | .
COc1ccc(OCC(O)CN2CCN(c3ccccc3)CC2)cc1 (centres undefined) | . | . | 13 | 11% | 3
Cc1cc(C(=O)N2CCC(Cc3ccccc3)CC2)ccc1[N+](=O)[O-] | -17 | 8.2 | 12 | -3% | -10
Cc1oc(-c2ccccc2)nc1CS(=O)CC(=O)N1CCc2ccccc2C1 (centres undefined) | . | 5.3 | -6 | -5% | 11 | Arbovirus inh repeat=-1
CCOC(=O)/C(N=Nc1c(C)n(C)n(-c2ccccc2)c1=O)=C(/O)c1ccccc1 | . | -2.2 | -6 | -4% | -5
O=C(c1cc2cc(F)ccc2[nH]1)N1CCN(C(=O)c2ccco2)CC1 | . | 2.0 | -1 | . | .
Cc1ccccc1-n1c(-c2ccc3ccccc3n2)n[nH]c1=S | . | 1.4 | 0 | 1% | .
COc1ccc(S(=O)(=O)N2CCN(c3ccccn3)CC2)c(OC)c1 | . | -2.4 | 5 | . | .
CCOc1ncccc1C(=O)Nc1cccc(C(=O)Nc2cccc(S(=O)(=O)CCO)c2)c1 | -33 | -1.3 | 4 | -9% | -11
COc1ccc(-c2[nH]nc3c2C(c2ccoc2)C(C#N)=C(N)O3)cc1 (centres undefined) | -90 | 87* | -14 | -4% | -6
C/C(=N\NS(=O)(=O)c1ccc(Br)cc1)c1ccncc1 | . | -2.8 | -4 | . | .
Cc1ccccc1C(=O)N=c1ccn(-c2nc3ccccc3nc2NS(=O)(=O)c2ccc(F)cc2)cc1 | . | -3.1 | -1 | . | .

Some of these compounds in order of heavy-atom count, highest first:
SMILES | YopH PTP inh | RecA splice inh | Mtb bLac sens | Mtb H37Rv | Arbovirus inh | others
CCOC(=O)/C(N=Nc1c(C)n(C)n(-c2ccccc2)c1=O)=C(/O)c1ccccc1 | . | -2.2 | -6 | -4% | -5
Cc1oc(-c2ccccc2)nc1CS(=O)CC(=O)N1CCc2ccccc2C1 (centres undefined) | . | 5.3 | -6 | -5% | 11 | Arbovirus inh repeat=-1
COc1ccc(OCC(O)CN2CCN(c3ccccc3)CC2)cc1 (centres undefined) | . | . | 13 | 11% | 3

The list goes on:
SMILES | YopH PTP inh | RecA splice inh | Mtb bLac sens | Mtb H37Rv | Arbovirus inh | others
Cc1ccc2nc(SCC(=O)NCc3ccco3)c(C#N)cc2c1 | 10 | -0.1 | -3 | -9% | -1
COCCNC(=O)c1ccccc1NC(=O)CSc1ccc(C)cc1 | . | 0.3 | 2 | 0% | 2
Cc1ccccc1CN1CCCN(Cc2ccc(Cl)cc2)S1(=O)=O | . | 1.4 | 4 | . | .
Cc1ccc(-c2nc3ncccc3o2)cc1NC(=O)COc1ccccc1 | -29 | 9.2 | 2 | -4% | -7
COc1ccc(N2CCN(C(=O)CCCn3nnnc3CN3CCOCC3)C(C)C2)cc1 (centres undefined) | . | 0.3 | ? | . | .
CCn1c(C)cs/c1=N\C(=S)Nc1ccccc1C | -14 | -1.4 | 0 | 12% | 4
Cc1ccc(S(=O)(=O)CCC(=O)OCC(=O)N2c3ccccc3CC2C)cc1 (centres undefined) | . | -1.4 | 1 | . | .
NC(=O)CNC(=O)[C@@H]1CC2(CC(c3cccc(Br)c3)=NO2)CN1C(=O)c1ccc(Br)cc1 (some centres undefined) | -12 | -3.9 | -7 | -9% | 0
Cc1cccc(N(CC(=O)NCC2CCCO2)C(=O)CNS(=O)(=O)c2ccc(Cl)cc2)c1 (centres undefined) | . | 6.4 | 3 | . | .
OCCNc1c2ccccc2nc2ccccc12 | . | -62 | 2 | -10% | -25
CSc1ccc(/C=C/c2cc(=O)c3ccccc3[nH]2)cc1 | -24 | -26 | 21 | 13% | -12
CCn1c(SCC(=O)Nc2ccc(S(=O)(=O)Nc3onc(C)c3C)cc2)nnc1-c1ccccc1 | -45 | 0.3 | . | -13% | 12

7 entries picked at random from the list so far, as already listed:
SMILES | YopH PTP inh | RecA splice inh | Mtb bLac sens | Mtb H37Rv | Arbovirus inh | others
O=C(NC1c2ccccc2-c2ccccc21)N1CCCCC1 | -22 | 2.9 | . | -12% | 4
O=[N+]([O-])c1ccc(/C=N/Nc2ccnc3cc(Cl)ccc23)o1 | . | 19 | 100 | . | .
COc1ccc(-c2[nH]nc3c2C(c2ccoc2)C(C#N)=C(N)O3)cc1 (centres undefined) | -90 | 87* | -14 | -4% | -6
O=C(c1ccco1)N1CCN(C(c2ccccc2F)c2nnnn2CC2CCCO2)CC1 (centres undefined) | -23 | 0.5 | 0 | 5% | 6
COCCNC(=O)c1ccccc1NC(=O)CSc1ccc(C)cc1 | . | 0.3 | 2 | 0% | 2
Cc1oc(-c2ccccc2)nc1CS(=O)CC(=O)N1CCc2ccccc2C1 (centres undefined) | . | 5.3 | -6 | -5% | 11 | Arbovirus inh repeat=-1
CC1(C)Cc2c(cnn2-c2ccccc2)C(=O)/C1=N\NC(=O)c1ccncc1 | -2 | 1.9 | 99 | 75% | .

(listing goes on)
SMILES | YopH PTP inh | RecA splice inh | Mtb bLac sens | Mtb H37Rv | Arbovirus inh | others
CC1(C)C=C(c2ccc(C=O)s2)CC(C)(C)N1C=O | -22 | 1.5 | -6 | 3% | -2
Cc1cccc(C(=O)NCCC(=O)Nc2ccc(C#N)cc2)c1 | . | -3.9 | 5 | . | .
CCNc1ccc(Br)cc(C(=O)/C=C/c2ccccc2Cl)c1=O | -27 | -0.3 | 11 | -6% | .
COC(=O)c1[nH]c2cccc(C)c2c1NC(=O)CN1CCN(c2ccccc2OC)CC1 | -30 | 2.6 | -9 | 1% | 21
CC(=O)Nc1ccc(S(=O)(=O)N2CCSC2c2ccc(C)cc2)cc1 (centres undefined) | -30 | 3.1 | -13 | 2% | -1
CCn1c2ccccc2c2cc(NC(=O)C(=O)NCC3CCCO3)ccc21 (centres undefined) | . | -0.8 | 9 | -4% | -5
CC1CCCN(C(=O)COC(=O)CNC(=O)c2ccc(Br)cc2)C1 (centres undefined) | . | -1.9 | 1 | . | .
O=C(Cc1c[nH]c2ccccc12)N/N=C/c1ccc(F)cc1 | -2 | 1.6 | 4 | 13% | 14
O=C(c1cc(-c2ccccc2Cl)nc2ccccc12)N1CCOCC1 | . | 0.7 | -4 | . | .
COc1ccccc1NC(=O)NCCC1=CCCCC1 | . | 3.4 | -1 | 10% | -5
CCOC(=O)C1(Cc2ccccc2C(F)(F)F)CCN(C2CCN(C(C)=O)CC2)CC1 | . | -8.3 | -5 | -1% | -4
O=C(C1CCN(c2nnc(-n3cccc3)s2)CC1)N1CCCCC1 | . | -0.1 | 100 | . | .
Cn1cc(CN2CCC(C(=O)Nc3ccc(Oc4ccccc4F)cc3)CC2)cn1 | . | -0.2 | 0 | . | .
COCCNC(=O)c1ccc2nc(Cc3ccc(OC)c(OC)c3)oc2c1 | . | -2.5 | -8 | . | .
CNC(=O)COC(=O)c1ccc(Cl)c(S(N)(=O)=O)c1 | . | 3.1 | -5 | 9% | .
CCCN1C(=O)/C(=C2\SC(N3CCCCC3)=NC2=O)c2ccccc21 | -28 | 0.7 | -2 | 19% | -8
O=C(COc1ccccc1)N1CCN(c2ccccc2)CC1 | -27 | -0.2 | 0 | -6% | 11
COc1ccc(C(=O)N2CCC(C(=O)O)CC2)c2ccccc12 | . | -1.5 | 3 | . | .
CC(C)(C)OC(=O)NC(Cc1ccccc1)C(=O)NCCCC(=O)O (centres undefined) | . | -3.5 | -7 | -7% | .
Cc1ccc(CNC(=O)C(=O)NCCCn2ccnc2)cc1 | -48 | 1.5 | 3 | -4% | -8
CC(=O)Nc1ccc(S(=O)(=O)Nc2nc3ccccc3nc2Nc2ccc3ccccc3c2)cc1 | -50 | -3.2 | 1 | -5% | -6
COc1cccc(C(=O)O/N=C(\N)c2ccccn2)c1OC | . | -4.5 | 4 | . | .
CC(CCc1ccc(O)cc1)N(C)CCc1ccccc1 (centres undefined) | -35 | 0.5 | . | -5% | -6
CC(C)CCNC(=O)c1cccc(Cl)c1 | -21 | -1.2 | 1 | . | 2
Cc1cc(-c2ccc(C)c(S(=O)(=O)NCCc3ccco3)c2)on1 | . | 3.5 | -3 | . | .
c1cc2c(cc1C1CCCCC1)c1c3n2CCN=C3CCC1 | -22 | -0.6 | -1 | ? | -36
Cc1ccccc1CNC(=O)CC1C(=O)NCCN1Cc1c(F)cccc1Cl (centres undefined) | . | 5.1 | -1 | 5% | 1
Cc1cccc(Cc2c(C)nc3nc(SCC(=O)O)nn3c2C)c1 | . | -2.9 | -8 | 0% | 7
COc1ccc(-c2csc(N(CCc3ccccc3)C(=O)COc3ccccc3)n2)cc1 | 8 | 5.1 | 1 | . | 6
COc1ccccc1CN1CC(C(=O)NCCn2ccc(C)n2)CCC1=O (centres undefined) | . | -0.8 | -4 | . | .
CCN(CC)CCN(C)C1CCC(c2ccccc2)CC1 (centres undefined) | -31 | . | -2 | -4% | -35
Cc1c(-c2ccc(F)cc2)[n+](=O)c(-c2ccc(F)cc2)c(C)n1[O-] | -17 | -0.4 | -3 | -21% | -7
Cc1ccc(-c2csc3ncnc(NCCN4CCOCC4)c23)cc1 | -3 | 2.8 | -8 | 14% | 6
